High-throughput results as filed in PubChem BioAssay.
HSD17B inh – inhibitors of human HSD17B10 dehydrogenase. Q99714. recombinant HSD17B10, NADH fluorescence kinetic; many of its hits are not listed in these tables. Potency, µM (top dose mostly 57.1 µM), for inactives: top-dose activity change, negative = inhibition, hits mostly inhibitors. 7.6% of 75,000 active; active means well fitted inhibition curve with a large enough effect; inconclusive means small, poorly fitted or top-dose-only effect; inactive means no such curve, though single readings can be large or run the other way;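 further: the protocol describes HADH2 (HSD17B10) and not the HSD17B4 of the title; nearly all actives have a fitted effect of over 70% in size; most hits overshoot -100% by far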
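Enzyme plus compound, 15 min room temperature; substrate mix added (NAD+ 1 mM, beta-hydroxybutyryl-CoA 90 uM final); plates read kinetically for NADH fluorescence. HADH2 was His-tagged, E. coli-derived, 20 nM.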
Numbers without * were called inactive; ? = inconclusive; & = joins results of further samples; [ ] = dose if it differs, or a comment. On the % scale 0 is the no-effect control and ±100 the full control effect; potency means the concentration at half of the fitted maximal effect. Only part of the results is shown; the hit share may differ from the screen's.

SMILES	HSD17B inh
Cc1ccc(CN(c2ccc(C(=O)N3CCCC3)cc2)S(C)(=O)=O)cc1	-12.1%
O=C1CC2CS(=O)(=O)CC2N1c1ccc(Cl)cc1Cl (stereo unspecified)	8.4%
COC(=O)C1C(=O)c2c(n[nH]c2C)CC1(C)C (stereo unspecified)	-2.6%
Cn1c(=O)c2ncn(CC(=O)Nc3ccc4oc(-c5cccc6ccccc56)nc4c3)c2n(C)c1=O	-7.4%
COc1ccc(NC(=O)CSc2nnc(-c3ccoc3C)n2CCc2ccccc2)cc1	-12.5%
CCOC(=O)N1CCC(NC(=O)C2CCCN(Cc3nc(-c4cccc(Cl)c4)oc3C)C2)CC1 (stereo unspecified)	6.6%
Cc1cc(NC(=O)Nc2cccc3ccccc23)no1	-21.8%
COc1ccc(S(=O)(=O)N2CCN(S(=O)(=O)c3ccc4c(c3)OCCO4)CC2)cc1C	-9.1%
COc1cc(C(=O)Nc2nccs2)c(Br)c(OC)c1OC	-18.4%
Cc1cc2cc(CCNC(=O)CC(C)(C)C)c(=O)[nH]c2cc1C	?
COc1cc(OC)c(C2C(C#N)=C(N)OC3=C2C(=O)CC(C)C3)cc1OC (stereo unspecified)	-6.1%
O=C(NC12CCC(O)C(SC1)/C2=N/O)c1ccccc1 (stereo unspecified)	1.9%
Cc1cc(N2CCN(c3nc4ccccc4s3)CC2)n2ncnc2n1	0.7%
COc1ccc(NC(=O)C2CC(c3ccc(OC)c(OC)c3)=NO2)cc1OC (stereo unspecified)	?
Cc1cccc2cc(CN(Cc3cccnc3)C(=O)c3ccncc3)c(=O)[nH]c12	?
O=C(CN1CCN(c2nc(-c3ccc(Cl)cc3)cs2)CC1)NCc1ccco1	-13.8%
CC1(C)Cc2cccc(OCC(=O)N3CCN(S(=O)(=O)c4ccccc4F)CC3)c2O1	2.2%
CC1CCN(CCc2nc3cc(NC(=O)Nc4ccccc4)ccc3n2C)CC1	-14.0%
CCN(CC)CCCN1C(=O)C(O)=C(C(=O)c2ccco2)C1c1cc(OC)ccc1OC (stereo unspecified)	7.5%
CC(=O)c1c(C(C)=O)c(C)n(NC(=O)c2cccnc2)c1C	0.3%
O=C1CCC(=O)N1c1ccc(CSc2nnnn2C2CCCCC2)cc1	1.9%
COCCNC(=O)Cn1cnc2ccc(S(=O)(=O)N3CCC(C)CC3)cc2c1=O	0.9%
Cc1ccc(C)n1-n1c(C)nc2scc(-c3cccs3)c2c1=O	-11.0%
COc1ccc(C[C@@H]2c3cc(OC)c(OC)cc3CC[N@+]2(C)CCC(=O)OCCCCCOC(=O)CC[N@@+]2(C)CCc3cc(OC)c(OC)cc3[C@H]2Cc2ccc(OC)c(OC)c2)cc1OC	-0.6%[25.6 µM]
O=C(NCc1ccco1)C1OCCc2ccccc21 (stereo unspecified)	-2.2%
CCOC(=O)CCN(Cc1cccs1)S(=O)(=O)c1ccc(Cl)cc1	-11.8%
COc1ccc2[nH]cc(C(=O)CN3CCCCC3)c2c1	0.3%
Cc1ccc2cc3cc(C(=O)N4CC(C)CC(C)C4)oc3nc2c1 (stereo unspecified)	-5.9%
CSc1nc(C)cc(Nc2ccc(O)c(CN3CCOCC3)c2)n1	11.8%[11.4 µM]
CCCn1cnc2c(c1=O)c1nc3ccccc3nc1n2CCC1=CCCCC1	-3.7%
CC(=O)c1ccc(NC(=O)Nc2ncn(Cc3cccc(C)c3)n2)cc1	-23.0%
Cc1ccc(SCc2cc(=O)[nH]c(N3CCCCC3)n2)cc1	22.2%
O=S(=O)(c1ccccc1)N1CCC2(CCCN(c3ccccn3)C2)CC1	?
FC(F)(F)c1cc(-c2ccccc2)nc(N2CCCCC2)n1	25.1µM*
CCOc1ccc(C(C)(C)C)cc1S(=O)(=O)N1CCOCC1	2.3%
Cc1cccc(CNc2ncnc3ccc(-c4ccc5c(c4)OCO5)cc23)c1	25.1µM*
CNc1cc(-c2ccccc2C)ncn1	?
O=C1COc2ccc(C(=O)COC(=O)CCc3ccc(S(=O)(=O)N4CCOCC4)cc3)cc2N1	11.9%
Cc1nc(NCc2ccc3c(c2)OCO3)c2nnn(Cc3ccccc3)c2n1	-2.8%
O=C(CSc1nnnn1-c1ccccc1)Nc1ncc2c(n1)CC(c1ccco1)CC2=O (stereo unspecified)	-3.5%
O=C(Nc1ccc2nc(-c3ccco3)[nH]c2c1)c1cccs1	?
CCOC(=O)c1cc(NC(=O)OC)c(C)nc1C	10.4%
O=C(Nc1ncccn1)C1CCCN1S(=O)(=O)c1ccc(Cl)c(Cl)c1 (stereo unspecified)	7.0%
CCn1c(CNC(=O)c2ccco2)nnc1SCC(=O)Nc1cc(C(F)(F)F)ccc1Cl	10.3%
COc1ccc(N2C(=O)NC3CC2(C)Oc2ccc(Br)cc23)cc1OC (stereo unspecified)	3.9%
c1ccc(Oc2nc(NCc3ccco3)nc(NCc3ccco3)n2)cc1	-1.2%
COc1c(C)cc(Br)cc1C(=O)Nc1cccc(-c2nc3ncccc3o2)c1	342.4%[activator]
Cc1cc(C)nc(N2CCC(C(=O)NCc3ccco3)CC2)n1	?
O=C(Cc1ccc2c(c1)OCCO2)c1c(O)cc(O)cc1O	0.3%
CC1CCCCN1C(=O)Cn1c(=O)n(C2CCCCC2)c(=O)c2ccccc21 (stereo unspecified)	-6.1%
Cc1csc(-c2nc3ccccc3n2C)n1	31.6µM*
CC1(C)CC(=O)C(C=NCCN2CCN(CCCCS(=O)(=O)O)CC2)=C(O)C1	-0.6%
CCCc1cc(C(N)=O)c(NC(=O)c2ccco2)s1	-29.1%
COc1ccc(NC(=O)Nc2cc(C)ccn2)cc1	-2.1%
CC(NC(=O)c1cccnc1)c1ccc2c(c1)OCO2 (stereo unspecified)	10.0%
CCOC(=O)N1CCC(NC(=O)CN2C(=O)CSc3ncccc32)CC1	8.7%
COc1ccc(S(=O)(=O)Cc2ccc(C(=O)NC3CC3)o2)cc1	11.8%
Cc1ccc2c(c1)C1CN(C)CCC1N2C(=O)Nc1ccc(Cl)cc1 (stereo unspecified)	-7.3%
O=C(COc1ccccc1)NCc1ccc2c(c1)OCO2	8.6%
CC(C)(C)c1cc(C(=O)NCc2ccco2)ccn1	1.8%
(next part)
SMILES	HSD17B inh
CS(=O)(=O)N(CCC(=O)O)Cc1ccccc1	-4.5%
C=CCn1c(-c2cc(OC)cc(OC)c2)n[nH]c1=S	?
CC(CC(C)C(=O)N1CCOCCN(C(=O)C(C)CC(C)C(=O)O)CCOCC1)C(=O)O (stereo unspecified)	5.8%
Cc1cc(C(F)(F)F)c2c(C)nn(CCc3nn[nH]n3)c2n1	31.6µM*
O=C(CCn1nnc2ccccc21)Nc1nnc(-c2ccccc2F)s1	6.6%
Cc1sc(-n2cccc2)c(C(=O)O)c1C	-23.6%
O=C1CC(N2CCC(O)(c3ccc(Cl)cc3)CC2)C(=O)N1Cc1ccc(N2CCCC2=O)cc1 (stereo unspecified)	-7.5%
CCOc1ccc(S(=O)(=O)n2cnc3cc(C)c(C)cc32)cc1	-6.4%
Cc1ccc2c(c1)NC(=O)C(CC(=O)NCCCN1CCCC1)O2 (stereo unspecified)	-2.2%
Cc1cc(C)c2c(-n3cccc3)c(C(=O)O)sc2n1	?
Cc1oc2nc(SCC(=O)N3CCCCC3)nc(N)c2c1C	-2.0%
CC(=O)Cc1nsc(NC(=O)c2ccc(-c3cccc(C(F)(F)F)c3)o2)n1	1.2%
COc1ccc(CCCC(=O)O)c(C)c1	-12.1%
COc1ccc(C(=O)N(Cc2nc(-c3ccc(C)cc3)no2)C(C)C)cc1OC	-0.1%
CCCCN(CC)CCNC(=O)Cn1cnc2sc(C)c(S(=O)(=O)N3CCOCC3)c2c1=O	15.2%
Nc1nnc(SCC(=O)NC2CCCCC2)n1-c1ccccc1	13.0%
Cc1ccc(-c2nc(COC(=O)c3c(C)noc3C)cs2)cc1	-13.0%
COCC(=O)N1CCC2(CCCN(c3ccccc3)C2)CC1	0.0%
CC1CCCN(C(=O)c2cc(F)c(F)cc2Cl)C1 (stereo unspecified)	5.2%
COc1ccc(CCN2CC3=C(C2=O)C(c2ccccc2)NC(=O)N3C)cc1OC (stereo unspecified)	31.6µM*
CCOC(=O)Oc1ccc2oc(=O)cc(C)c2c1	-5.0%
C(/CCc1ccccc1)=N\n1cnnc1	-0.3%
O=C(O)c1c2c(nc3ccc(S(=O)(=O)N4CCC(C(=O)NC5CCCC5)CC4)cc13)CCCCC2	1.3%
O=c1n(-c2ccccc2)c(=O)n2n1CC[C@H]1/C(=N\OC[C@@H](O)COCc3ccco3)[C@H]3O[C@@H]3[C@@H](O)[C@@H]12	0.3%&-1.4%[11.4 µM]
CCN(CCNC(=O)C1CCCN(S(=O)(=O)c2cnc[nH]2)C1)c1ccccc1 (stereo unspecified)	0.9%
O=C(O)CCCCCNc1nc2ncn(Cc3ccccc3)c2c(=O)[nH]1	2.3%
CCOC(=O)C1CCN(Cc2ccc(N(C)C)cc2)CC1	-1.5%
Cc1ccc(OC(=O)c2ccc(C)c(C)c2)cn1	4.6%
CCCCOc1ccc(-c2nnn(CC(=O)Nc3ncc(CC(=O)OCC)s3)n2)cc1	-7.5%
Cn1c(SCCS(=O)(=O)c2ccc(Cl)cc2)nnc1-c1ccccc1	6.4%
O=C(NC1CCCC1)c1nc2c(nnn2Cc2cccc(Cl)c2)c(=O)[nH]1	2.6%
COc1ccc(-c2cc(-c3ccc(OC)cc3)[nH]n2)cc1	-11.6%
C(=N\c1nc2ccccc2n1CCN1CCCCC1)/c1ccc2c(c1)OCO2	7.0%
O=C(CCC1CCCCC1)Nc1ccccc1O	-19.3%
COc1ccc(NC(=O)N2CC[C@@]3(CCCN(C(=O)c4c(C)noc4C)C3)C2)cc1	0.7%
CN(C)CCN1C(=O)c2oc3ccc(Cl)cc3c(=O)c2C1c1cccc(Br)c1 (stereo unspecified)	6.7%
COc1ccc(C2CC(=O)c3c(O)cc(OC4OC(COC5OC(C)C(O)C(O)C5O)C(O)C(O)C4O)cc3O2)cc1O (stereo unspecified)	1.7%
COc1ccc(Cl)cc1NC(=O)CN(C)C(C)C(=O)NCC1CCCCC1 (stereo unspecified)	-4.3%
COC(=O)c1[nH]c2ccc(C)cc2c1NC(=O)CCN1CCN(Cc2ccc3c(c2)OCO3)CC1	31.6µM*
C[C@@H]1O[C@@H](OC[C@H]2O[C@@H](Oc3c(-c4cccc(O)c4O)oc4cc(O)cc(O)c4c3=O)[C@H](O)[C@@H](O)[C@@H]2O)[C@H](O)[C@H](O)[C@H]1O	-17.4%
COc1cccc(OCC(O)CN2CCC(C)CC2)c1 (stereo unspecified)	-1.2%
C=CCSSSCC=C	1.0%
COc1ccc(-c2cc(C(=O)O)[nH]n2)cc1OC	6.8%
Cc1cc(C)n2nc(C(=O)OCCOc3cccc(Br)c3)nc2n1	6.4%
COc1ccc(OC)c(NC(=O)CSc2nnc(Cc3cccn3C)n2-c2ccc(F)cc2)c1	0.6%
CCOCCCNC(=O)Cn1ncc2c(=O)oc3ccccc3c21	0.2%
O=C(NCc1cccs1)NC1CCCCC1	10.9%
O=C(c1ncc[nH]1)c1ccccc1C(=O)N1CCOCC1	-0.9%
CCOC(=O)c1sc(NS(=O)(=O)c2ccc(NC(C)=O)cc2)nc1C	-13.0%
Cc1ccccc1S(=O)(=O)Cc1ccc(C(=O)N2CCN(c3ccc(F)cc3)CC2)o1	-2.2%
COC(=O)c1cc2c(cc1Cl)SC(=NCCCN1CCOCC1)NS2(=O)=O	-11.7%
COc1ccc(-c2oc3ncnc(NCCCN4CCOCC4)c3c2-c2ccc(OC)cc2)cc1	25.1µM*
CSc1nsc(SC)c1C(=O)OCC(F)(F)F	0.1%
CC(C)CN(Cc1cc2ccccc2[nH]c1=O)C(=O)c1cccnc1	-28.4%
O=C(Cc1cccs1)Nc1ccc(Cl)cc1	-8.4%
COCCn1nnnc1SCC(=O)N1CCCCC1	-0.1%
C[C@H](O)[C@H](O)[C@@H]1CNc2nc(N)[nH]c(=O)c2N1	31.6µM*
COC(=O)c1ccc(C23CC4(C2)[C@H](CN(Cc2ccc(-c5ccccc5)cc2)[C@@H]4c2ccccc2)C3c2ccc(Cl)nc2)cc1 (stereo partly specified)	0.8%
COc1ccc(C(=O)Nc2ccc(S(=O)(=O)Nc3onc(C)c3C)cc2)cc1OC	6.7%
COc1cccc(C2=NOC(C(=O)Nc3cccc(C(C)=O)c3)C2)c1OC (stereo unspecified)	-7.1%
O=C(NCCCN1CCCCCC1)C1CC(=O)N(CCc2ccccc2)C1 (stereo unspecified)	3.3%
C=CCNC(NC(=O)c1ccccc1)(C(=O)OCC)C(F)(F)F (stereo unspecified)	-7.7%
